PKD1 kinase inh: inhibitors of human PKD1 kinase, biochemical, fluorescence polarization; inhibition, %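 (about 10 µM by stock and volumes)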; PKD1 kinase fluorescence polarization assay; Serine/threonine-protein kinase D1 (Homo sapiens), Q15139; AID 797, 2007; 200,000 compounds, 0.056% hits;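 active = inhibition of 50% or more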;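 note: controls were vehicle for no effect and a reference inhibitor for full effect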
Target sequence (Q15139 whole entry, looked up): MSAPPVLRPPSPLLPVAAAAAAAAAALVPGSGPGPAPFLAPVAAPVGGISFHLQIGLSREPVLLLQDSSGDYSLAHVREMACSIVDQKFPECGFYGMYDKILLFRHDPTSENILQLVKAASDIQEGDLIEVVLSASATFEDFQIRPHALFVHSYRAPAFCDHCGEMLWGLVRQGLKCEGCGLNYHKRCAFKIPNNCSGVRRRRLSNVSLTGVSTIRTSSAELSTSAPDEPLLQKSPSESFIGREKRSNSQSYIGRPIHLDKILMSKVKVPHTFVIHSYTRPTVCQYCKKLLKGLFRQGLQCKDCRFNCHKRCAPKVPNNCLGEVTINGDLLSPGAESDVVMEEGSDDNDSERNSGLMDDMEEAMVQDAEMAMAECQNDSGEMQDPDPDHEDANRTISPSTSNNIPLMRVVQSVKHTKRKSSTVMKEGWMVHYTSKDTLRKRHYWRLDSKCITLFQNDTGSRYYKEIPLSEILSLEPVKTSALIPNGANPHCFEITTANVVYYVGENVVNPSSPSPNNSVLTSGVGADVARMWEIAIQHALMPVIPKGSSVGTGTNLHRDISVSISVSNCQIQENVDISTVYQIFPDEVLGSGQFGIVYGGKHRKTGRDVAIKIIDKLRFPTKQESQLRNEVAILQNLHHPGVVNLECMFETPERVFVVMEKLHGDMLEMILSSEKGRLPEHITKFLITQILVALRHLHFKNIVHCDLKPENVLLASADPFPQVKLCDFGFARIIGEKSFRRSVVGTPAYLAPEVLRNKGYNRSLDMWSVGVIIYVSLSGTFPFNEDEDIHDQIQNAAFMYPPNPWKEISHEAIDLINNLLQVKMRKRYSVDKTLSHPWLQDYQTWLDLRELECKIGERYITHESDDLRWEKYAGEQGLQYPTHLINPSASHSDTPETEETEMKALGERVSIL
GALR2 agonist: GALR2 receptor agonists, primary screen, cell-based | GALR2-expressing cells, agonist activation read-out | 140,000 compounds, 0.48% hits | activation, %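 (tested at 5 µM)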;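 active = above mean plus 3 SD of all compounds, about 5% in these data, not always enough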;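 note: 0% = vehicle buffer wells and 100% = reference agonist at full effect; tested in CHO reporter cells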
Insulin prom inh: inhibitors of insulin promoter-driven GFP, primary screen, imaging, TRM-6 cells (human fetal islet line), eGFP reporter, cell count | reporter expression induced with tamoxifen | inhibition, % at 2 µM | 130,000 compounds, 0.9% hits;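 active = inhibition above the mean plus 3 SD, with well images judged a real hit on visual review, cut at about 60% in these data, passing the limit was not always enough; inconclusive = inhibition over the cutoff but images rejected on review; inactive = inhibition not above the cutoff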
RGS16-Gao HTS: modulators of RGS16 binding to Galphao, primary screen, biochemical, human proteins, multiplexed bead flow cytometry. Regulator of G-protein signaling 16 (Homo sapiens) + Guanine nucleotide-binding protein …. 220,000 compounds, 0.38% hits. bead-based flow cytometry RGS16-Galphao binding, fluorescence; actives lie on both sides. binding response (% of control), % at 10 µM;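 active = below 25% or above 175%, edge rows of some plates excepted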;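 note: Galphao activated by GDP with aluminum fluoride before binding; 100% = wells without compound and 0% = beads without RGS; some results beyond the cut were filed as inactive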
HSV augment: enhancers of HSV replication in host cells, fold increase, host cell viability. HSV replication augmentation in cells. maximum fold increase. 220,000 compounds, 0.005% hits. AID 1956, 2009;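 active = peak rise of 1.5-fold or more in the series; inconclusive = self-fluorescent or not available for retest; tested in PC3 cells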;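 note: first round at 10 µM; read as green reporter fluorescence; hits show the peak of a series up to 25 µM; 1 = signal of infected wells without compound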
Insulin prom inh cell count: also measured in Insulin prom inh; calls as there; normalized cell count, %; measured here: cell count, toxicity; reference of the scale not given here;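 cells exposed to compound for 48 h; stained nuclei by imaging scaled within each plate; lower means fewer cells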
HSV augment primary fold: recorded beside HSV augment, whose call it bears; fold increase; compound at 10 µM; measured here: primary screen fold increase 10 uM; tested in PC3 cells;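 GFP signal in the first replicate; 1 = infected wells without compound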
An asterisk follows results filed as active; i = inactive; ? = inconclusive; · = not tested or not shown. Hits appear at their usual frequency; overall some 1.3% were active at least once.

SMILES	PKD1 kinase inh	GALR2 agonist	Insulin prom inh	Insulin prom inh cell count	RGS16-Gao HTS	HSV augment	HSV augment primary fold
Cc1cc(NC(=O)C2CCCN(S(=O)(=O)c3c(C)noc3C)C2)n[nH]1 (centres undefined)	-18	-1.4	·	·	61	i	1
CCn1cc(SCC(=O)N2CCOCC2)c2ccccc21	-5	-3.9	·	·	123	i	0.99
O=C(Nc1cccc(C(F)(F)F)c1)C1C2CC3OC(=O)C1C3C2 (centres undefined)	-3	-4.3	32	90	98	i	0.88
CCn1c(COc2ccccc2C)nc2ccccc21	-2	-1.4	-44	92	105	i	1.1
CC(C)NC(=O)N1CCCN(c2nc3ccc(Cl)cc3s2)CC1	·	·	·	·	85	i	0.98
O=C(Nc1ccc2c(c1)OCCO2)c1cc2sccc2n1Cc1ccc(F)cc1	-2	-1.9	-23	149	100	i	1.1
O=C(CSc1nnc(NC(=O)c2ccc(S(=O)(=O)N3CCOCC3)cc2)s1)Nc1ccccc1C(F)(F)F	-13	-1.1	-4	54	127	i	0.97
O=C(c1ccccc1-n1cccn1)N1CCc2c([nH]c3ccccc23)C1c1ccccn1 (centres undefined)	3	·	·	·	99	i	0.96
Cc1nn(-c2ccccc2)c(N2CCCC2)c1/C=N/NC(=S)Nc1ccccc1C(F)(F)F	-11	0.3	18	69	121	i	0.61
CC(=O)Nc1ccc(NC(=O)CSc2nnc(COc3ccccc3C)n2CC2CCCO2)cc1 (centres undefined)	0	·	-14	166	110	i	0.88
COc1ccc(/C=C(/C#N)C(=O)Nc2cccnc2)cc1OC	-3	-0.6	50	146	100	i	0.91
Cc1nn(-c2ccc([N+](=O)[O-])cc2)c2c1C(c1ccc(OC(F)F)cc1)N1C(=N2)C(=O)Nc2ccccc21 (centres undefined)	3	·	53	93	96	i	0.85
O=C(Nn1c(-c2ccc(Br)cc2)nc2ccccc2c1=O)c1ccncc1	-7	·	0	46	71	i	0.93
CCCN(CC1CC1)C(=O)CSc1nnc(-c2cc(-c3cccs3)nc3ccccc23)o1	12	-0.8	12	67	27	i	0.94
COc1cccc(CN2CCN(C3CCN(c4ccccc4F)CC3)CC2CCO)c1 (centres undefined)	6	·	·	·	109	i	0.99
O=[N+]([O-])c1cc(S(=O)(=O)N2CCCC2)ccc1N/N=C/c1cccnc1	-10	-1.4	52	80	104	i	1.1
CCOc1cc(NC(=S)NCCc2ccccc2)c(OCC)cc1NC(C)=O	1	·	0	98	103	i	1
Cc1cc(Cl)ccc1OCC(=O)OCC(=O)Nc1ccc(F)c([N+](=O)[O-])c1	-4	-0.4	-57	56	72	i	1.1
COC(=O)c1ccccc1NC(=O)C1CCC(=O)N1S(=O)(=O)c1ccc(C)cc1 (centres undefined)	10	-1.0	·	·	70	i	1.1
Cc1cc(Cl)ccc1OCCCC(=O)NCc1ccccn1	-5	·	33	102	101	i	0.84
S=C(c1ccc(-c2ccc(Cl)cc2Cl)o1)N1CCCC1	·	·	·	·	102	i	0.97
COc1ccc(CCNC(=O)COC(=O)Cn2cnc3ccccc32)cc1OC	-3	·	·	·	99	i	0.9
O=C(NCc1ccc(F)cc1)c1c2c(nc3ccccc13)CCN(Cc1ccccc1)C2	6	-1.8	·	·	98	i	1.3
CCOC(=O)c1cnc2sc3c(n2c1=O)CCCC3	5	-0.4	-14	103	102	i	0.86
C=CCn1c(-c2csc3ccccc23)n[nH]c1=S	-4	-1.4	15	105	97	i	0.74
CCCn1c(=O)c(C(=O)NNS(=O)(=O)c2ccc(C)cc2)c(O)c2ccccc21	-4	0.0	-3	119	98	i	0.94
CC1(C)Cc2ccccc2C(N/N=C/c2cccc(F)c2)=N1	22	-1.8	-71	120	103	i	1
CN(C)S(=O)(=O)c1ccc(C(=O)NCC(C)(C)N2CCOCC2)cc1	·	·	·	·	102	i	1
O=C(CCc1ccccc1)Nc1nncs1	-2	0.4	-39	44	103	i	1
O=C(COC(=O)CNC(=O)c1cccc([N+](=O)[O-])c1)Nc1nc2ccccc2s1	0	-0.1	37	130	101	i	0.9

In another format: results already given.
O=C(NCc1ccc(F)cc1)c1c2c(nc3ccccc13)CCN(Cc1ccccc1)C2
  PKD1 kinase inh: 6
  GALR2 agonist: -1.8
  Insulin prom inh: ·
  Insulin prom inh cell count: ·
  RGS16-Gao HTS: 98
  HSV augment: i
  HSV augment primary fold: 1.3

O=C(Nc1cccc(C(F)(F)F)c1)C1C2CC3OC(=O)C1C3C2 (centres undefined)
  PKD1 kinase inh: -3
  GALR2 agonist: -4.3
  Insulin prom inh: 32
  Insulin prom inh cell count: 90
  RGS16-Gao HTS: 98
  HSV augment: i
  HSV augment primary fold: 0.88

Cc1nn(-c2ccccc2)c(N2CCCC2)c1/C=N/NC(=S)Nc1ccccc1C(F)(F)F
  PKD1 kinase inh: -11
  GALR2 agonist: 0.3
  Insulin prom inh: 18
  Insulin prom inh cell count: 69
  RGS16-Gao HTS: 121
  HSV augment: i
  HSV augment primary fold: 0.61

Cc1cc(Cl)ccc1OCC(=O)OCC(=O)Nc1ccc(F)c([N+](=O)[O-])c1
  PKD1 kinase inh: -4
  GALR2 agonist: -0.4
  Insulin prom inh: -57
  Insulin prom inh cell count: 56
  RGS16-Gao HTS: 72
  HSV augment: i
  HSV augment primary fold: 1.1

Further compounds:
SMILES	PKD1 kinase inh	GALR2 agonist	Insulin prom inh	Insulin prom inh cell count	RGS16-Gao HTS	HSV augment	HSV augment primary fold
COc1ccc(C(=O)CSc2nnc(C(CO)NC(=O)c3ccc(OC)cc3)n2C)cc1 (centres undefined)	7	-1.9	38	96	91	i	0.96
CCCn1c(NCc2ccco2)nc2ccccc21	0	0.0	14	78	102	i	0.89
Cc1c(C(=O)C(=O)NCCCn2ccnc2)c2ccccc2n1C	4	·	·	·	104	i	0.9
O=C1c2ccccc2-c2nc3ccccc3nc21	-6	-2.1	12	71	98	i	1.1
O=C(NC(=S)N1CCN(c2ccc(Cl)cc2[N+](=O)[O-])CC1)c1ccco1	-2	-1.9	19	98	103	i	1
COc1ccc(OCC(=O)NNC(=O)c2cccc(C)c2)cc1	-3	·	·	·	98	i	0.91
O=C(Nc1nccs1)[C@@H]1CCCN1C(=O)c1cccs1	-5	·	·	·	102	i	1
Cc1cccc(NC(=S)NCc2ccc3[nH]c4c(c3c2)CCCC4)c1	-12	-0.9	41	85	79	i	0.89
CCc1ccccc1NC(=O)CSc1nc2n[nH]c(C)c2c(=N)n1-c1cccc(OC)c1	-1	0.7	23	143	97	i	0.79
N/C(=N\OS(=O)(=O)c1ccccc1)c1cccnc1	-5	-1.3	15	138	98	i	0.95
O=[N+]([O-])c1ccc2c(c1)C(N1CCOCC1)/C(=C/COc1ccc(F)cc1)O2 (centres undefined)	6	-2.7	13	95	99	i	0.93
O=C(N/C(=C/C=C\c1ccccc1)C(=O)N1CCOCC1)c1ccc(Br)cc1	-7	·	·	·	100	i	0.77
CSc1n[nH]c(=O)n1C1CCCCC1	·	·	·	·	101	i	1.1
CCOCc1cc(C2NC(=O)NC(C)=C2C(=O)OCC)ccc1OC (centres undefined)	-3	-1.4	32	102	97	i	0.82
Cc1cc(NC(=O)CSc2ccc(-c3cccc([N+](=O)[O-])c3)nn2)no1	2	·	-29	140	105	i	0.68
COc1ccc(CNCCNC(=O)c2cccs2)c(OC)c1OC	-1	·	·	·	105	i	0.97
Cc1c(-c2nc(-c3cccnc3)no2)cccc1[N+](=O)[O-]	1	·	·	·	110	i	0.94
CCOc1ccc(N2CC(C(=O)NCCc3ccc(OC)c(OC)c3)CC2=O)cc1 (centres undefined)	0	-2.0	-17	86	103	i	0.81
O=C(CCc1ccccc1)Nc1nc2n(n1)C(c1ccc(Cl)cc1)CC(=O)N2 (centres undefined)	9	-2.6	·	·	102	i	1.1
CN(c1ccccc1)S(=O)(=O)c1cc(Cl)ccc1Cl	0	·	-57	135	103	·	·
CCN(CC)CCNC(=S)Nc1ccc(F)cc1	-7	·	·	·	111	i	0.97
CCOC(=O)c1c(-c2ccccc2)csc1NC(=O)CSc1nc(N)cc(N)n1	-10	-0.1	·	·	110	i	0.89
Cc1nc(-c2ccccc2)nc2sc(C(=O)c3ccc(F)cc3)c(N)c12	·	·	·	·	107	?	·
CCOC(=O)Cc1csc(NC(=O)C(C)Oc2ccc3c(C)cc(=O)oc3c2)n1 (centres undefined)	1	·	·	·	97	i	1
CC(C)NC(=S)N1CCN(C(c2ccccc2)c2ccccc2)CC1	4	-0.1	·	·	104	i	1.1
CCN(CC)S(=O)(=O)c1ccc(NC(=O)Cc2cccs2)cc1	0	·	-25	60	97	i	0.88
COc1cc(C(=O)NCC(c2cccnc2)N2CCN(c3ccccc3)CC2)cc(OC)c1OC (centres undefined)	-2	-0.6	·	·	106	i	0.83
CC1=N/C(=C\c2ccc(OC(C)C)cc2)C(=O)N1c1ccc(C(=O)O)cc1	8	-0.6	8	76	107	i	1
O=c1[nH]c(/C(=N\O)c2ccccc2)no1	-1	-1.5	-52	87	78	i	0.72
COc1ccc(S(=O)(=O)Nc2ccc3c(c2)OCO3)cc1	0	-1.9	-9	116	103	i	1.1

Retrieved by structure from above:
SMILES	PKD1 kinase inh	GALR2 agonist	Insulin prom inh	Insulin prom inh cell count	RGS16-Gao HTS	HSV augment	HSV augment primary fold
CC(C)NC(=S)N1CCN(C(c2ccccc2)c2ccccc2)CC1	4	-0.1	·	·	104	i	1.1
COc1ccc(CCNC(=O)COC(=O)Cn2cnc3ccccc32)cc1OC	-3	·	·	·	99	i	0.9
O=C(CCc1ccccc1)Nc1nc2n(n1)C(c1ccc(Cl)cc1)CC(=O)N2 (centres undefined)	9	-2.6	·	·	102	i	1.1

Next part.
SMILES	PKD1 kinase inh	GALR2 agonist	Insulin prom inh	Insulin prom inh cell count	RGS16-Gao HTS	HSV augment	HSV augment primary fold
COc1ccc(-c2nn(C)c(=O)c3ccccc23)cc1NC(=O)Cn1nc(-c2ccccc2)c2ccccc2c1=O	2	-0.2	3	107	97	i	0.96
Cn1ncc([N+](=O)[O-])c1C(=O)Nc1ccc(-c2nc3ccccc3[nH]2)cc1	12	-3.2	8	96	·	i	0.63
COc1cccc(C(=O)N(CN2CCCC2=O)c2cc(C)on2)c1	-13	-3.5	·	·	164	i	0.51
O=[N+]([O-])c1nn(-c2ccc(Cl)cc2)n(O)c1=NCc1ccccc1	-6	·	-53	102	100	i	0.98
N#Cc1ccc(CSc2nnc(NC(=O)C3CC(=O)N(c4ccc5c(c4)OCCO5)C3)s2)cc1 (centres undefined)	-1	-1.2	33	128	91	i	0.96
COc1cccc(CNC(=S)NC2CC2)c1	0	·	·	·	98	i	1.1
CCc1cccc(OCCCCN(CC)CC)c1	-3	-0.2	-45	73	93	i	1
CN(C)S(=O)(=O)Oc1cccc(C(=O)Nc2ccccc2Cl)c1	-6	-3.8	-23	139	104	i	0.93
Cc1ccc(-c2nnn(Cc3nc4ccccc4s3)n2)cc1	11	-1.1	-15	113	106	i	0.81
CCOC(=O)C(=O)Nc1cc(Cl)ccc1C	-5	-1.1	4	120	106	i	0.83
O=C(CSc1ncn[nH]1)c1ccco1	-3	-1.6	38	188	92	i	0.97
CC(=O)CC(=O)Nc1ccc(Cl)cn1	-2	·	·	·	210	i	0.86
COc1ccc2cc3c(N)nn(C(=O)Cc4ccccc4OC)c3nc2c1	5	-3.5	·	·	98	i	0.6
COC(=O)Cn1c(C)nc2c(sc3nc(C)cc(C)c32)c1=O	11	1.2	-5	137	100	i	0.95
CCn1ccnc1CNCc1ccc(OCC(O)CN(C)Cc2ccccc2)cc1 (centres undefined)	2	·	·	·	97	i	1.1
Cc1onc(-c2ccccc2Cl)c1C(=O)NCc1ccc(N2CCCC2=O)cc1	5	-1.3	-23	95	100	i	0.9
Cc1cc(CN2CCCC(CNC(=O)c3ccc(F)cc3)C2)cc(C)c1O (centres undefined)	-4	·	·	·	109	i	1.1
COC(=O)c1sccc1NC(=O)c1cc(-c2ccc(C)cc2)nc2ccccc12	2	-1.3	·	·	102	·	·
Cc1cc(=O)c2ccc(Cl)cc2[nH]1	-2	-0.9	20	97	107	i	1
Cn1cccc1/C=N/N1CCN(Cc2ccccc2)CC1	·	·	·	·	98	i	1.2
O=C(CSc1nc2ccccc2s1)Nc1cc(C(=O)O)cc(C(=O)O)c1	1	·	13	113	104	i	1.1
CCN(CCCNC(=O)CC1Oc2ccc(C)cc2NC1=O)Cc1ccccc1 (centres undefined)	-9	-2.0	·	·	102	i	1.1
